# Source: PubChem BioAssay (several laboratories)
# PABP polyA inh: PABP-poly(A) binding inhibition | inhibition, % at 35 µM | 290,000 tested, 1% active | AID 2014 | PABP-poly(A) RNA binding, fluorescence polarization | P11940;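 active = 50% or more with normal probe brightness, or confirmed in later tests; inconclusive = above 50% with abnormal brightness, or retests that disagree; inactive = below 50% or failed in later tests; about a fifth of its hits are not listed in these tables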;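 also: calls also rest on retests at 20 µM and on dose response follow-up; controls were probe without protein and protein plus probe with vehicle; some compounds called inactive have numbers as strong as hits; many hits fall short of the cut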
# UUG fidelity: modulators of start codon recognition fidelity in yeast; AID 602363; 350,000 tested, 0.13% active; activity score, % at 18.7 µM; S. cerevisiae UUG-firefly luciferase reporter, luminescence/redox ratio;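 active = replicate mean at a twofold rise or more, about +100% in these data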;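 also: firefly luciferase made from a UUG start codon reports start codon fidelity; reporter light over untreated wells divided by growth signal over untreated wells; some hits fall short of that in this replicate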
# Rce1 inhib: yeast Ras-converting enzyme inhibition; Q03530; yeast membranes, quenched prenylated peptide cleavage fluorescence; calls only; 290,000 tested, 0.27% active; AID 2563;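 active = fall in fluorescence gain of 50% or more versus controls, with final raw signal at or below 3038400; inconclusive = same 50% fall but final raw signal above 3038400; inactive = fall in fluorescence gain under 50%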;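 also: plate controls were neutral control wells for no effect and wells lacking membranes for full effect; tested at 10 µM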
# Target sequence (Q03530 whole entry, looked up): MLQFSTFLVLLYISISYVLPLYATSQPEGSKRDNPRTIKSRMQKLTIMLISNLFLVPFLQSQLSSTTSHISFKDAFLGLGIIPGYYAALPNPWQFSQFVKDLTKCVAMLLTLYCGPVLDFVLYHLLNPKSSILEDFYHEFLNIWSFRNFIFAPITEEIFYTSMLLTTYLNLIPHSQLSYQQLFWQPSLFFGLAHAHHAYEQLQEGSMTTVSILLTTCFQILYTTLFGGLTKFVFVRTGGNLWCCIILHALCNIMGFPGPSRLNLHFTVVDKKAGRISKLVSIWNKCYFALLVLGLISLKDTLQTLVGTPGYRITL
# MT1-MMP act inh: inhibitors of human MT1-MMP activation; P50281; HT1080 RFP-PRO-GFP cells, GFP/RFP ratio fluorescence, overnight; percent of plate control window, DMSO zero; GFP/RFP ratio change, % at 20 µM; 360,000 tested, 0.061% active; AID 651647;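 active = GFP/RFP ratio change of at least 30% with cell ATP level not reduced by more than half and red fluorescence within 50% of control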; also: strong numbers were not always called active
#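 Test system: HT1080 RFP-PRO-GFP cells; Benchmarks: DMSO and RFP-L50D-GFP cell wells; Timing: cells overnight before dosing, compound overnight, 37 °C, 5% CO2; Compound: one 20 µM compound dose with 1% DMSO; Read-out: GFP/RFP fluorescence ratio.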
# CSC inhib: cancer stem cell inhibition; cancer stem cell-like cells viability, luminescence; inhibition, % at 7.5 µM; 300,000 tested, 1.1% active;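 active = mean at 75% or more and at least half the replicates too; inconclusive = mean and replicates disagree; tested in HMLE shEcad cells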;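 also: 0% = median of negative and 100% = median of positive control wells; the first replicate is given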
# eIF4H inh: inhibitors of RNA binding by human eIF4H | AID 2012 | 290,000 tested, 0.94% active | Q15056 | inhibition, % at 35 µM | eIF4H fluorescence polarization binding assay;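 active = 50% or more with normal probe brightness, or confirmed in later tests; inconclusive = above 50% with abnormal brightness, or retests that disagree; inactive = below 50% or failed in later tests; about a fifth of its hits are not listed in these tables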;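 also: calls also rest on retests at 20 µM and on dose response follow-up; 0% = protein and probe with vehicle and 100% = probe without protein; strong numbers were not always called active; many hits fall short of the cut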
# HIV Env fusion: inhibitors of HIV Env-mediated cell fusion | HeLa-JRFL Env/CEM21 cell fusion, luciferase | inhibition, % at 12.3 µM | 360,000 tested, 1.1% active | AID 651610;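 active = mean replicate inhibition score of at least 50 and every replicate individually at or above 50; inconclusive = only one of the two criteria met; inactive = mean below 50 and not all replicates reaching 50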;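 also: 0% = plate neutral controls and 100% = maraviroc near 300 nM; one replicate is shown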
# MT1-MMP act inh RFP: also measured in MT1-MMP act inh; calls as there; RFP signal change, %; measured here: RFP expression control read;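 0 = vehicle wells; hits needed this value within 50% of zero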
# Numbers without * were called inactive; i = inactive; u = inconclusive; x = no result given. Not a hit list, and some 2.9% of all compounds hit somewhere here.
SMILES,PABP polyA inh,UUG fidelity,Rce1 inhib,MT1-MMP act inh,MT1-MMP act inh RFP,CSC inhib,eIF4H inh,HIV Env fusion
CN(C)S(=O)(=O)c1ccc(C(=O)NCC(=O)N/N=C/c2ccccc2)cc1,20,-10,x,0,2,0,-3,2
CCn1c(Cn2nnc(-c3ccccc3)n2)nnc1SCC(=O)Nc1cccc(C)c1C,-5,-17,i,5,0,-6,3,x
O=C(Nc1nnc(C2=COCCO2)o1)c1ccc([N+](=O)[O-])cc1,4,-33,i,-3,0,39,-8,-9
O=C(O)c1ccc(CSc2nnc(SCc3ccccc3)s2)cc1,0,-4,i,2,-5,-17,0,x
O=C(CNC(=O)c1ccc(Br)cc1)NCC(=O)OCc1ccc(Cl)cc1,5,-17,i,-2,-1,-5,11,5
COc1cccc(-n2c(SCC(=O)NCCC3=CCCCC3)nc3n[nH]c(C)c3c2=N)c1,-2,x,i,x,x,-12,3,x
COc1ccc(C(=O)N2CCC(C)(C(=O)O)C2)c(OC)c1 (stereo unspecified),x,-15,x,1,8,x,x,-7
Cc1cccc(NC(=O)Cn2c(=O)oc3cc(S(=O)(=O)N4CCCC4)ccc32)n1,-12,-4,i,-3,4,12,-5,-8
Cn1c(SCC(=O)Nc2cccc(S(=O)(=O)NC3=NCCCCC3)c2)nnc1-c1ccccc1,-4,x,i,0,2,-7,-14,-19
N#C/C(=N\Nc1ccc(Br)cc1)C(=N)N1CCOCC1,0,-4,i,1,0,-3,8,-22
O=C(NCC1CC1)c1ccc2sc([C@@H]3O[C@H](CO)[C@H](O)[C@H](O)[C@H]3O)nc2c1,x,-9,x,0,4,x,x,u
Cc1cc(C(=O)NCC(c2cccs2)N2CCOCC2)ccc1[N+](=O)[O-] (stereo unspecified),36,-8,i,-4,-1,-9,10,4
O=C(O)c1ccccc1N(Cc1ccccc1)C(=O)CO/N=C/c1ccccc1,-4,x,i,1,3,x,-2,5
CCOC1CCCCC1NS(=O)(=O)c1ccc(Cl)cc1 (stereo unspecified),-1,10,i,6,3,-9,-9,x
O=C(CCC(=O)c1ccccc1)Nc1ccccc1,x,6,i,1,4,-11,x,5
CN(Cc1nccn1C)C(=O)c1ccc2nc(Cc3ccccc3F)oc2c1,4,-18,i,4,5,-11,-3,-44
CC1CC(Nc2ccccc2)c2ccccc2N1C(=O)c1cccnc1 (stereo unspecified),4,1,i,3,-8,10,-1,20
Cc1ccc(C)c(CSc2nnc(-c3ccccn3)n2N)c1,-6,-29,i,1,4,-2,-6,-17
Cc1ccc(-c2nc(CS(=O)CC(=O)N3CCN(c4ccc(F)cc4)CC3)c(C)o2)cc1 (stereo unspecified),17,-7,i,2,-7,-1,-1,6
CCn1c(=NC(=O)CS(=O)(=O)c2ccc(F)cc2)sc2cccc(OC)c21,x,-20,i,4,-10,-7,x,17
CC(=O)NCCn1c(SCC(=O)NCCC(C)C)nc2ccccc2c1=O,-8,-3,i,2,-1,1,-11,-119
CCCCN(Cc1cc2cc(OC)ccc2[nH]c1=O)C(=O)c1ccco1,1,1,i,0,0,-6,7,x
Cc1cccc(C)c1N1CCN(S(=O)(=O)N2CCOCC2)CC1,17,9,i,-3,0,5,20,4
NC(N)=Nc1cc2ccccc2c2ccccc12,7,x,i,x,x,-3,2,-21
CC(C)Oc1ncnc2c1[nH]c1ccccc12,2,-7,x,5,-27,0,-3,-2
SMILES,PABP polyA inh,UUG fidelity,Rce1 inhib,MT1-MMP act inh,MT1-MMP act inh RFP,CSC inhib,eIF4H inh,HIV Env fusion
COc1ccc(Sc2nc(-c3ccccn3)ncc2OC)cc1,-5,x,i,-5,-6,-7,-6,4
OC1(c2ccc(F)cc2)CCN(Cc2nnnn2Cc2cccs2)CC1,-16,0,i,7,1,-7,9,x
COCC(=O)N1CCC(Oc2ccc(C(=O)N3C[C@H]4CC[C@H]3C4)cc2)CC1,5,2,i,-1,1,2,-4,-4
COCCNC(=O)c1cc(S(=O)(=O)N2CCCCC2)ccc1N1CCOCC1,x,-11,i,5,2,0,x,10
Nc1ccc(C(=O)NC2CCSc3ccccc32)cc1[N+](=O)[O-] (stereo unspecified),8,-4,i,4,-2,-7,6,-10
CCCCNC(=S)N(CCN(CC)CC)Cc1cc2cc3c(cc2[nH]c1=O)OCO3,-4,-14,i,-4,-3,-1,6,1
COc1ccc(N(C)C(=O)C2CCN(S(=O)(=O)c3cccc4nonc34)CC2)c(OC)c1,1,-13,x,-2,5,-8,-7,-6
CN1/C(=C/c2cccc[n+]2CCO)Sc2ccccc21,x,-17,i,-11,-4,-9,x,-190
O=C(COc1ccccc1Cl)Nc1ccccc1C(=O)N1CCOCC1,0,-9,i,0,0,-3,-10,-6
O=C(CSc1nc2ccccc2c(=O)n1NC(=O)Cc1ccccc1)NCc1ccco1,7,2,i,3,6,-6,-4,-3
CCc1ccc(C(=O)OCC(=O)NCC(F)(F)F)cc1,-4,x,i,4,-1,1,-3,-35
C[C@@H]1CC[C@@]2(OC1)O[C@H]1C[C@H]3[C@@H]4CC=C5C[C@@H](O)[C@H](O)C[C@]5(C)C4CC[C@]3(C)[C@H]1[C@@H]2C (stereo partly specified),7,-5,i,1,-1,21,1,29
O=[N+]([O-])/C(=C\Nc1ccc(F)cc1F)S(=O)(=O)c1ccccc1,-7,-11,i,-2,0,-6,2,6
Cc1ccc(C(=O)Nc2cccc(NC(=O)c3ccc(C)o3)n2)o1,14,-6,i,-4,1,8,-8,-26
C=CCSc1nc(C)c2cc(C)cc(C)c2n1,-8,1,i,-2,0,-10,-4,-110
COc1ccc(CN2CC(=O)N(c3ccc(C)cc3)C2=S)cc1OC,-2,-5,i,-3,-3,7,2,x
O=C1N=C(N2CCN(c3ccccc3)CC2)S/C1=C\c1cn[nH]c1-c1ccccc1,-10,-10,i,8,5,2,-4,x
COc1ccc(CCn2c(S)nc3ccccc3c2=O)cc1,14,-3,i,2,2,0,9,-1
CCOC(=O)CNc1c(-c2ccc(Cl)cc2)nc2cnccn12,5,-2,i,-3,4,-3,6,x
O=[N+]([O-])c1ccc(Cl)c(S(=O)(=O)Nc2cccc(-c3ccc(N4CCOCC4)nn3)c2)c1,x,-16,i,3,-3,0,x,x
O=C(CCCN1C(=O)c2ccccc2C1=O)Nc1ccccc1C(=O)N1CCOCC1,-4,-10,i,-2,1,7,-2,x
CCOc1ccc(S(=O)(=O)N2CCCCC2)cc1NC(=O)C1CCCC1,x,-11,x,1,1,x,x,41
CCOC(=O)CC1COc2ccccc2N1C(=O)c1ccc(F)cc1 (stereo unspecified),-12,13,x,3,2,4,3,0
CCOc1ccc(NC(=O)CN(C)C(=O)c2cccnc2Sc2ccc(C)c(C)c2)cc1OCC,-3,20,i,x,x,10,0,-23
Cn1c(=O)n(C)c2cc(/C=N/NC(N)=S)ccc21,-3,-28,i,7,8,-13,-3,-24
SMILES,PABP polyA inh,UUG fidelity,Rce1 inhib,MT1-MMP act inh,MT1-MMP act inh RFP,CSC inhib,eIF4H inh,HIV Env fusion
CC(=O)Nc1ccc2c(c1)Cc1ccc(Cl)cc1-2,x,-11,x,3,2,x,x,-20
O=C(CCCc1ccccc1)NCc1ccc(F)cc1,-14,x,i,4,5,7,-4,-6
O=C(NCN1CCOCC1)c1cnccn1,-5,-7,i,1,3,-18,-1,2
CN(c1ccccc1C(=O)Nc1cccnc1)S(C)(=O)=O,-9,7,i,-3,4,-13,-12,-46
C=CCn1c(SCC(=O)c2c(N)n(C)c(=O)n(C)c2=O)nc2sc(C)c(C)c2c1=O,-6,-19,x,x,x,-5,1,-33
O=C1C[C@@H]2c3c(cccc3CN1Cc1ccccc1Br)C[C@@H](O)[C@H]2O,x,-8,x,1,0,x,x,-6
COC(=O)c1cc2occc2n1Cc1cccc(C)c1,-4,-17,i,-3,-1,10,-6,4
CC(C)NC(=S)N1CCN(S(=O)(=O)c2cccc(C(F)(F)F)c2)CC1,3,x,i,1,2,-15,2,11
CCC1(c2ccc(F)cc2)NC(=O)N(CC(=O)Nc2ccccc2Cl)C1=O (stereo unspecified),-6,13,i,7,1,-17,1,-54
COc1c(C(=O)NNC(=O)c2ccccc2)csc1Br,6,x,i,0,5,-3,-2,-15
Cc1ccccc1N(CC(=O)NC(C)(C)C)C(=O)CS(=O)CC(=O)Nc1ccc2c(c1)OCO2 (stereo unspecified),5,x,i,4,4,-13,1,2
COc1ccc(C2NC(=S)NC(O)(C(F)(F)F)C2C(=O)c2cccs2)cc1 (stereo unspecified),-8,-29,i,-2,-1,-13,0,x
COc1cccc(N2C(=NC(=O)C3CCCO3)SC3CS(=O)(=O)CC32)c1 (stereo unspecified),-14,-15,i,-1,-2,7,0,-6
COc1ccc(N2CCN(C(=O)COC(=O)CNC(=O)c3ccc(Cl)cc3Cl)CC2)cc1,x,x,i,4,0,-3,x,0
O=C(OCc1ccccc1)N1C[C@H](O)[C@H](O)C[C@@H]1c1c(Cl)cccc1Br,x,12,x,0,-1,x,x,-27
COc1ccc(-c2c(C3=CCCCC3)oc3ccc(-c4ccc5c(c4)OCO5)cc23)cn1,x,-17,i,-4,-2,14,x,21
CCOC(=O)N1CCN(c2cc(=O)n(-c3cccc(Br)c3)c(=O)[nH]2)CC1,-6,-6,i,1,4,-3,-10,10
CC(=O)OC1CC(c2cc(C(C)(C)C)c(O)c(C(C)(C)C)c2)=NO1 (stereo unspecified),-5,x,i,2,-1,-2,-7,-14
C[C@@H](NC(=O)[C@@H]1Cc2ccccc2CN1C(=O)OC(C)(C)C)C(=O)NCC1CCCO1 (stereo partly specified),1,2,i,-1,3,-13,6,-6
CC(C)OP(=O)(OC(C)C)C(O)c1cccc([N+](=O)[O-])c1 (stereo unspecified),-3,x,i,6,4,-16,-6,-3
Cc1cc2nnc(SCC(=O)NCC3CCCO3)n2c2ccccc12 (stereo unspecified),-6,x,i,0,4,-10,-3,-16
Cc1cc(Nc2cccc(F)c2)n2nc(C)nc2n1,-2,-4,i,10,6,-2,-2,-7
Cc1cc(=O)n2nc(N3CCC(C(=O)NCc4ccc(F)cc4)CC3)sc2n1,-1,-8,i,0,8,-8,-11,5
COc1ccc(-c2cc(C(=O)O)sc2C)cc1,-11,x,i,0,0,-15,-5,-4
Cc1cccc(NC(=O)c2ccccc2OCC(=O)c2ccccc2)c1,9,-18,i,-8,-8,7,-7,-29

# Whole records as entered above. Screens in order: PABP polyA inh	UUG fidelity	Rce1 inhib	MT1-MMP act inh	MT1-MMP act inh RFP	CSC inhib	eIF4H inh	HIV Env fusion
# CCOC(=O)N1CCN(c2cc(=O)n(-c3cccc(Br)c3)c(=O)[nH]2)CC1 is entered as -6	-6	i	1	4	-3	-10	10
# C[C@@H](NC(=O)[C@@H]1Cc2ccccc2CN1C(=O)OC(C)(C)C)C(=O)NCC1CCCO1 (stereo partly specified) is entered as 1	2	i	-1	3	-13	6	-6

# Later entries.
SMILES,PABP polyA inh,UUG fidelity,Rce1 inhib,MT1-MMP act inh,MT1-MMP act inh RFP,CSC inhib,eIF4H inh,HIV Env fusion
CCOCCc1nnc(NC(=O)c2cccc(F)c2)s1,2,-13,i,-2,7,-9,-3,x
C/C(=N\NC(=O)c1cccc(S(=O)(=O)N2CCOCC2)c1)c1ccc(C#N)cc1,-11,52,i,1,-4,0,-15,-20
C/C(CC(=O)N1CCCC1)=N\NC(=O)c1cc2ccccc2cc1O,15,x,i,-12,-13,-4,15,-16
O=[N+]([O-])c1cccc(N=Cc2ccccc2)c1,x,3,x,1,4,x,x,-3
CCC(NC(=O)c1ccccc1NC(=O)c1ccccc1)C(=O)NNC(=O)c1cccnc1 (stereo unspecified),-3,x,i,0,-3,-8,3,-1
Cc1nc2ccccc2c(=O)n1NC(=O)c1cccc(Cl)c1,2,3,i,-3,-1,-18,-3,11
